Screening results: PubChem BioAssay, National Center for Advancing Translational Sciences (NCATS)
SmPrx2 inh – Schistosoma mansoni Prx2 inhibition; S. mansoni Prx2 activity coupled to TGR/GSH (TGR is thioredoxin glutathione reductase), NADPH fluorescence loss, qHTS; some inactives read as strong as hits; Potency, µM; 65,000 compounds, 0.07% hits; active means full or partial inhibition curve with a strong effect at the top dose; inconclusive means weaker partial or single-point curve; inactive means no accepted curve; also: series up to 57 µM; many of its hits are not listed in these tables
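Prx2 activity was followed as the loss of NADPH fluorescence (ex 365/em 450 nm), read every 30 sec for 8 min after H2O2 start. The enzyme mix (50 nM Prx2, 25 nM TGR, GSH, NADPH; pH 7.4 phosphate buffer) was incubated with compound for 15 min at room temperature first.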
Anthrax LT inh – blocks cellular internalization of anthrax lethal toxin | Cells, anthrax lethal toxin internalization, FRET ratio (460/530) | Potency, µM (series often up to 40 µM), without a hit: at the top dose activity change, negative = inhibition, usual class: inhibitors | 70,000 compounds, 0.67% hits; active = well fitted falling ratio curve with the 530 nm signal flat; inconclusive = other ratio curves, or a change in one channel alone; inactive = flat curves in the ratio and both channels; the % refers to the ratio; also: % is scaled to controls: 0 for no effect and ±100 for the full control effect; nearly all actives have a fitted effect of over 50% in size; tested in ME-180 cells; beta-lactamase reporter
An asterisk follows results filed as active; u = inconclusive; x = not tested or not shown; & = joins results of further samples; [ ] = another dose, or the depositor's remark. Potency is read from the fitted curve at half-maximal effect. Not all compounds are listed (hit frequency here may not be typical).

Structure | SmPrx2 inh | Anthrax LT inh
COCC(=O)N(C)C1(c2nnnn2CCOC(=O)Nc2ccc(Cl)cc2)CCCC1 | >57 | -17%
COCCN1CN=C(Nc2nc(C)c3ccc(C)cc3n2)NC1 | >57 | -10%
O=C(O)CCCC(=O)Nc1ccccc1Br | >57 | 13%
O=C(Nc1ccccc1)N1CCCC2(CCN(C(=O)c3cccc(F)c3)CC2)C1 | >57 | u
CCOC(=O)c1ccc(NC(=O)CSc2nnc(Cn3c(=O)sc4ccccc43)n2C)cc1 | >57 | 18%
CCCN(CCC)CCNC(=O)C(NS(=O)(=O)c1ccc2c(c1)CCC(=O)N2)c1ccccc1 (configuration not stated) | >57 | 17%
N#Cc1nc(Cc2ccccc2)oc1NCCN1CCOCC1 | >57 | -10%
O=C(CSc1nnc(-c2ccc(F)cc2)o1)c1ccc2c(c1)OCCO2 | >57 | 2%
CCOC(=O)Nc1sc2c(c1C(=O)OCC)CCC2 | >57 | -12%
CCc1ccccc1NC(=O)CC(O)(C(=O)OC)C(F)(F)F (configuration not stated) | >57 | -11%
CCCc1c(OCCCOc2ccc(OCC(=O)O)cc2)ccc(CC=O)c1O | >57 | 2%
CCCCOC(=O)Nc1ccc(S(=O)(=O)Nc2cc(C)nc(C)n2)cc1 | >57 | u
COC(=O)N1CCC2(CC1)CN(c1ccc(-c3ccccc3)cc1)C2 | >57 | -12%
COCCCNc1nc2ccccc2nc1NS(=O)(=O)c1cccs1 | >57 | -3%
Cn1c(=O)cc(SCC(=O)NCCCN2CCN(c3ccc(F)cc3)CC2)c2ccccc21 | >57 | -6%
Cc1cc(=O)n2nc(N3CCCC(C(=O)N4CCN(c5ccccc5)CC4)C3)sc2n1 (configuration not stated) | >57 | -13%
CCc1nc(SCC(=O)Nc2cc(C)on2)n[nH]1 | >57 | 3%
CN(C)c1nc2c(c(=O)n(C)c(=O)n2C)n1Cc1ccccc1 | >57 | 0%
CN(C)c1ncc2nc(-c3cc(F)cc(F)c3)c(=O)n(-c3ccccc3)c2n1 | >57 | u
COC(=O)c1c(C)n(Cc2ccc3c(c2)OCO3)c2ccc(O)cc12 | >57 | 0%
O=c1cc(-c2ccccc2)[nH]c2[nH]n(-c3ccccc3)c(=O)c12 | >57 | -28%
CC(=O)NC(CCS(C)(=O)=O)C(=O)Nc1cc(Cl)ccc1Cl (configuration not stated) | >57 | 1%
O=C(c1cnccn1)N1CCC[C@@]2(CCN(c3ncccn3)C2)C1 | >57 | u
O=c1c2cnn(-c3ccccc3)c2ncn1Cc1cccnc1 | >57 | 9%
CCOc1cc2c3c(c1)C1(C(=O)N3C(C)(C)C=C2C)C(C#N)=C(N)Oc2cc(O)ccc21 (configuration not stated) | >57 | x
Cn1c(SCC(=O)N2CCCCCC2)nc2c([nH]c3ccccc32)c1=O | >57 | 18%
Cc1nnc(SCC(=O)Nn2cnnc2)s1 | >57 | u
O=C(Nc1ccc(-c2cn3ccsc3n2)cc1)C1CC1 | >57 | u
C[C@H](N)Cc1cnc[nH]1 | >57&>57 | -28%&5%
CS(=O)(=O)N1CCC[C@@]2(CCN(c3ncccn3)C2)C1 | >57 | -3%
Cc1cc(=O)[nH]c2ccccc12 | >57 | 9%
COc1ccc(Cl)cc1-n1c(C)cc(C(=O)O)c1C | >57 | -3%
CCn1c(SCC(=O)N2CCc3ccccc32)nnc1-c1c[nH]c2ccccc12 | >57 | x
CCOC(=O)CCN1C(=O)[C@H]2[C@H]3[C@H](O)[C@H](O)C/C(=N/NC(=O)OCC)[C@H]3CC[C@@H]2C1=O | x | -2%[8 µM]
NC(=O)C1CCN(C(=O)CN2C(=O)c3ccccc3S2(=O)=O)CC1 | >57 | -9%
CCCCNC(=O)c1ccc2nc(-c3ccco3)c(-c3ccco3)nc2c1 | >57 | -8%
c1cncc(CNC2CCCc3ccccc32)c1 (configuration not stated) | >57 | -6%
O=C(Nc1ccc2ccccc2c1)[C@H]1C[C@@H]1[C@H](NP(=O)(c1ccccc1)c1ccccc1)c1ccccc1 | >57 | u
CCOc1ccc(CNC(=O)C2CCC(=O)N2C2CCCC2)cc1OC (configuration not stated) | >57 | 5%
Cc1ccc(NC(=O)N(Cc2ccc3c(c2)OCO3)Cc2cc3cc4c(cc3[nH]c2=O)OCCO4)cc1 | >57 | 2%
Cc1nn(C)c(C)c1S(=O)(=O)N1CCCC(C(=O)N2CCN(c3ccccc3)CC2)C1 (configuration not stated) | >57 | 7%
CCN(CC)CCN1C(=O)c2cccc3cc(N)cc(c23)C1=O | >57 | u
CCOc1ccc2oc(-c3ccccc3)c(C(=O)O)c2c1 | >57 | -2%
CCc1nc2ccccc2c(=O)n1NC(=O)c1c(O)c2cccc3c2n(c1=O)CCC3 | >57 | 5%
COc1ccccc1S(=O)(=O)Cc1ccc(C(=O)N2CCOCC2)o1 | >57 | -1%
CC1CC(C)CN(S(=O)(=O)c2cccc3cccnc23)C1 (configuration not stated) | >57 | -1%
COCCn1c(=O)cnc2cnc(N3CCN(C)CC3)nc21 | >57 | -6%
CC(O)c1nc2ccccc2n1Cc1nnc(-c2ccc(Cl)cc2)o1 (configuration not stated) | >57 | 2%
COC(C)(C)CCCC(C)C/C=C/C(C)=C/C(=O)OC(C)C (configuration not stated) | x | u
CCOc1ccc2[nH]c(C)c(CN3CCOCC3)c(=O)c2c1 | x | -11%

Among those listed so far, these contain a thiophene ring, fused or not:
Structure | SmPrx2 inh | Anthrax LT inh
CCOC(=O)Nc1sc2c(c1C(=O)OCC)CCC2 | >57 | -12%
COCCCNc1nc2ccccc2nc1NS(=O)(=O)c1cccs1 | >57 | -3%

The list goes on:
Fields: SmPrx2 inh | Anthrax LT inh
- COc1cc2cc(c1Cl)N(C)C(=O)C[C@H](OC(=O)C(C)C)[C@]1(C)O[C@@H]1[C@@H](C)[C@H]1C[C@](O)(NC(=O)O1)[C@@H](OC)/C=C\C=C(\C)C2
→ >57 | u
- C=CCN1C[C@@H](C)N([C@H](c2ccc(C(=O)N(CC)CC)cc2)c2cccc(OC)c2)C[C@H]1C
→ >57 | u
- CCCCC(CC)CNC(=O)CCS(=O)(=O)c1cccc2nonc12 (configuration not stated)
→ >57 | 3%
- O=C(NC1CC1)C1CCN(c2ccc(S(=O)(=O)N3CCOCC3)cc2)CC1
→ >57 | -2%
- O=C(NCc1nc2ccccc2[nH]1)[C@H]1C[C@@H]1[C@H](NP(=O)(c1ccccc1)c1ccccc1)c1ccccc1
→ >57 | 8%
- CSc1ccn(CCC(=O)O)c(=O)n1
→ >57 | u
- CN(c1ccc(C(=O)Nc2nccs2)cc1)S(=O)(=O)c1ccccc1
→ >57 | -22%
- CCC(CC)COC(=O)C(C#N)c1nc2ccccc2nc1N1CCN(CC)CC1 (configuration not stated)
→ >57 | u
- Cc1nn(-c2ccccc2)c2sc(C(=O)O)cc12
→ >57 | -12%
- CC(O)/C=C/c1ccc2ccccc2n1 (configuration not stated)
→ x | -1%
- CN1CCN(C(=O)CN(Cc2ccc(Cl)cc2)S(C)(=O)=O)CC1
→ >57 | 1%
- O=S(=O)(NC1CCCCCCC1)c1cccs1
→ >57 | -5%
- CC1(C)Cc2c(sc3c2c(=N)n(Cc2ccco2)c(=O)n3Cc2ccccc2)CO1
→ >57 | -7%
- Cc1cccc(NS(=O)(=O)c2ccc(Oc3ccccc3)cc2)n1
→ >57 | -11%
- COC(=O)C1=C(N)OC2=C(C(=O)CC(C)(C)C2)C1c1cccs1 (configuration not stated)
→ x | 19%
- Cc1ccc(-c2nc3ccccc3[nH]2)s1
→ >57 | 8%
- Cc1[nH]c(C)c(C(=O)O)c1CNC1CCCCC1C (configuration not stated)
→ >57 | 0%
- CCOC(=O)C1CCCN(CCC(=O)Nc2cccc(F)c2)C1 (configuration not stated)
→ >57 | -20%
- Cc1ccc(Cn2nnc3c(=O)[nH]c(C4CCN(S(=O)(=O)c5ccc(C)cc5)CC4)nc32)cc1
→ >57 | -11%
- Cc1cc(C)nc(SCC(=O)O)n1
→ >57 | 5%
- CCOC(=O)c1oc2cccc(O)c2c1CN(Cc1ccccc1)C(C)=O
→ x | -12%
- c1ccc(Cn2nnc3c(N4CCOCC4)ncnc32)cc1
→ >57 | -4%
- CCN1CCN(CCCNC(=O)c2cn(CCOC)c(=O)c3c2c2ccccc2n3C)CC1
→ >57 | -12%
- CCN(CC)CCN1C(=O)C(O)=C(C(=O)c2cccs2)C1c1ccc(C)o1 (configuration not stated)
→ >57 | 10%
- COc1ccccc1OCCCn1c(C)c(C#N)c2ccccc21
→ >57 | u
- Cc1ccc(-n2ncc(C(=O)O)c2C2CCN(C(=O)OC(C)(C)C)CC2)cc1
→ >57 | 14%
- CC(=O)N[C@@H]1CCSC1=O
→ >57 | 4%[3.58 µM]
- CC(=O)OCC(COC(C)=O)OC(C)=O
→ x | -10%
- CC(C)OC(=O)Cn1c(=O)sc2ccccc21
→ >57 | 0%
- N#Cc1ccsc1NC(=O)COC(=O)CCCSc1nc2ccccc2s1
→ >57 | 2%
- CCc1ccccc1NC(=O)c1nnn(CC(=O)Nc2ccccc2C)c1N
→ >57 | -2%
- Cc1cc2ccccc2n1CCNC(=O)c1ccccc1
→ u | 6%
- COc1ccccc1CC(=O)NC1CC(C)(C)NC(C)(C)C1
→ >57 | u
- CCOC(=O)c1cnc(SCC(=O)N2CCN(c3ccccc3)CC2)nc1N
→ >57 | u
- CC(=O)C1=C(C)NC(SCC(=O)c2ccc(Cl)cc2)=C(C#N)C1c1ccco1 (configuration not stated)
→ x | u
- CC(NC(=O)COc1ccc(Br)cc1)C(=O)O (configuration not stated)
→ x | -9%
- Cc1ccc(S(=O)(=O)NCC(=O)OCC(=O)c2cccs2)cc1
→ >57 | -14%
- COc1ccc(OC)c(NC(=O)CCC(=O)Nc2nnc(C(F)(F)F)s2)c1
→ >57 | 16%
- COc1ccc2[nH]c(=O)c(CN(C(=O)c3ccncc3)C(C)C)cc2c1
→ >57 | 2%
- CCOC(=O)N1CCN(C(=O)COc2cc(=O)n(C)c3ccccc23)CC1
→ >57 | 11%

Record cards, as listed above. Values in the order: SmPrx2 inh | Anthrax LT inh
CC(NC(=O)COc1ccc(Br)cc1)C(=O)O (configuration not stated) is entered as x | -9%
CC(C)OC(=O)Cn1c(=O)sc2ccccc21 is entered as >57 | 0%
CC(=O)N[C@@H]1CCSC1=O is entered as >57 | 4%[3.58 µM]
CCOC(=O)c1oc2cccc(O)c2c1CN(Cc1ccccc1)C(C)=O is entered as x | -12%
Cc1ccc(-n2ncc(C(=O)O)c2C2CCN(C(=O)OC(C)(C)C)CC2)cc1 is entered as >57 | 14%

Remaining list, next part
Fields: SmPrx2 inh | Anthrax LT inh
- CCOc1ccc(CN(C(=O)c2ccco2)C2CCS(=O)(=O)C2)cc1 (configuration not stated)
→ >57 | -14%
- Cc1ccc(OCC(O)CN2CCN(c3ccccc3)CC2)cc1 (configuration not stated)
→ x | -18%
- CC(=O)Nc1nonc1-c1nc2ccccc2n1N(C(C)=O)C(C)=O
→ x | -4%
- Nc1ccc(N=Nc2c(S(=O)(=O)O)cc3ccccc3c2S(=O)(=O)O)cc1
→ >57 | u
- CCn1cc(CNC(=O)CCc2ccc(OC)cc2)cn1
→ >57 | -3%
- Cn1c(CSCc2ccccc2Cl)nnc1SCC(=O)Nc1nccs1
→ >57 | 9%
- NC(=O)c1c(NC(=O)Cc2cccs2)sc2c1CCC2
→ >57 | -3%
- COc1ccc(NC(=O)CCn2nc(C)cc2C)cc1
→ >57 | -4%
- Cc1ccc(Cl)cc1NS(=O)(=O)c1c(C)[nH]c(=O)[nH]c1=O
→ >57 | 5%
- CCCCc1c(C)c2ccc(OC)c(/C(C)=N\O)c2oc1=O
→ >57 | u
- Cc1ccc(C)c2[nH]c(=O)c(CCNC(=O)C(C)C)cc12
→ >57 | 15%
- N#Cc1ccc(COC(=O)Cn2nnc(-c3ccccc3)n2)cc1
→ >57 | -1%
- O=C(O)CCC(=O)Nc1ccc(N2CCCCC2)c(C(=O)O)c1
→ >57 | -5%
- COc1ccccc1OCC(O)Cn1c(=N)n(CCN2CCCCC2)c2ccccc21 (configuration not stated)
→ >57 | u
- COc1ccc(-c2noc(CN(C)S(=O)(=O)c3ccc(C)cc3)n2)cc1
→ >57 | u
- COc1ccc(Cl)cc1C(=O)n1nc(C)cc1C
→ x | -2%
- CN1CCN(C(=O)c2cnn3c(C(F)F)cc(C4CC4)nc23)CC1
→ >57 | -10%
- Cc1ccc(C)c(OCCOCCN2CCOCC2)c1
→ x | -4%
- CCN1/C(=C/C(C)=O)Sc2ccc(OC)cc21
→ x | -4%
- O=C(CSc1n[nH]c(-c2ccncc2)n1)NCCc1ccccc1
→ >57 | 9%
- C=CCNC(=O)c1ccccc1Cl
→ >57 | -9%
- CC(C)C(=O)NCCc1nc2ccccc2n1C
→ >57 | -6%
